Calb FLC = C. albicans growth modulation with fluconazole; C. albicans CaCi-2 (fluconazole-resistant clinical isolate) + fluconazole, Alamar Blue growth, 48 h; growth inhibition, % (test concentration not listed); actives 0.57% (n = 300,000); AID 1979;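 active means most replicates above 75%; inconclusive means exactly half above 75%; inactive means most below 75%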;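 further: all wells also contain fluconazole at 8 µg/ml as a sub-toxic cotreatment; 0% = median of DMSO wells and 100% = median of geldanamycin control wells; wells of about 8 µL received 7.5 nL stock; the first replicate is given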
RanGTP-Impb inh = disruptors of Ran-importin-beta complex formation – biochemical, FRET, CFP-Ran, YFP-importin-beta, homogeneous, primary screen; actives 1.1% (n = 300,000); cell-free CFP-Ran/YFP-importin-beta FRET ratio; AID 2216; inhibition, % (no concentration beside the values);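 active means most replicates above 15%; inconclusive means exactly half above 15%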;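 further: 0% = DMSO wells and 100% = Ran loaded with GDP instead of GTP; wells of about 40 µL received 100 nL stock; the first replicate is given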
Beta cell apopt = blocks beta cell apoptosis; INS-1E cytokine-induced death, ATP luminescence, 48 h; percent of positive-control rescue, neutral wells zero; protection from apoptosis, % (concentration not given with the values); actives 0.8% (n = 300,000);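 active means all replicates at 75% or more, or half of them and the mean; inconclusive means half reach 75% but not the mean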;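 further: 0% = cytokine-treated negative control wells and 100% = positive control rescue; higher means more ATP so stronger rescue from cytokine killing; wells of about 40 µL received 100 nL stock; the first replicate is given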
T cruzi inh = T. cruzi replication inhibition; actives 1.4% (n = 300,000); inhibition, % (test concentration not listed); T. cruzi beta-gal in NIH3T3, luminescence, 90 h;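 active means mean inhibition across valid replicates above about 55%, limit read from the data; inconclusive means mean below that limit but half or more replicates reach it; inactive means mean below it, under half of replicates reach it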;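 further: signal also drops with host cell toxicity which is not excluded here; 0% = plate median of DMSO wells and 100% = zero luminescence signal; higher percent means less beta-gal luminescence so fewer parasites; stock transfer was 50 nL into about 50 µL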
Vif TR-FRET = HIV-1 Vif–A3G interaction blockers – biochemical, TR-FRET, GST-Vif 1-94, biotin-A3G peptide, dose response retest, primary screen (AID 1117319); TR-FRET GST-Vif / biotin-A3G peptide binding; higher % means a stronger effect; test concentration not given here; strong numbers were not always called active; inhibition, %; hits with a dose series show IC50 in µM; actives 0.57% (n = 260,000);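 active means above the screen mean plus three standard deviations and confirmed in dose response; inconclusive means results disagree or hit not tested in dose response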;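 further: Vif residues 1-94 fused to GST binding biotinylated APOBEC3G peptide 110-148; 0% = full assay without inhibitor and 100% = GST in place of GST-Vif; retest series ran down from 100 µM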
A1 inh = inhibitors of the anti-apoptotic protein A1, read as caspase activation; AID 2462; caspase activation, % (test concentration not listed); MEF A1-2A-BIM cells, Caspase-Glo 3/7 luminescence, 3 h; percent of clofoctol response, vehicle zero; actives 0.066% (n = 330,000);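 active means over half of replicate activation scores above 10%, or exactly half above 10 with the replicate mean above 10; inconclusive means replicate mean below 10 yet half the replicates above 10; inactive means over half of replicates below 10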;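 further: wells of about 30 µL received 50 nL stock; many hits fall short of the cut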
MLL AF4-AF9 inh = inhibitors of human MLL-AF4/AF9 interaction. AID 651704. actives 0.47% (n = 350,000). inhibition, % at 10 µM. P42568. AlphaScreen, biotin-AF4 peptide binding to FLAG-AF9;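 active means every replicate reaching a set inhibition limit, whatever the replicate mean, cut at about 25% in these data; inconclusive means mean inhibition reaches that limit but some replicates miss it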;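 further: 0% = plate neutral control median and 100% = total signal loss; the record names both 10 and 1 µM as test concentration; the first replicate is given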
LANA-H2A inh = blocks KSHV LANA binding to histone H2A/H2B; actives 0.6% (n = 320,000); cell-free LANA-H2A/H2B peptide, fluorescence polarization; inhibition, % (test concentration not listed); AID 2629; Q9QR71; in the data active means inhibition mostly above about 10%, no sharp cut-off; inactive means mostly below about 6.7%;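 further: stock transfer was 7.5 nL into about 10 µL; 0% = median of vehicle wells and 100% = median of positive control wells; one replicate is shown; the record names a cut of 25% in any replicate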
Target sequence (Q9QR71 whole entry, looked up): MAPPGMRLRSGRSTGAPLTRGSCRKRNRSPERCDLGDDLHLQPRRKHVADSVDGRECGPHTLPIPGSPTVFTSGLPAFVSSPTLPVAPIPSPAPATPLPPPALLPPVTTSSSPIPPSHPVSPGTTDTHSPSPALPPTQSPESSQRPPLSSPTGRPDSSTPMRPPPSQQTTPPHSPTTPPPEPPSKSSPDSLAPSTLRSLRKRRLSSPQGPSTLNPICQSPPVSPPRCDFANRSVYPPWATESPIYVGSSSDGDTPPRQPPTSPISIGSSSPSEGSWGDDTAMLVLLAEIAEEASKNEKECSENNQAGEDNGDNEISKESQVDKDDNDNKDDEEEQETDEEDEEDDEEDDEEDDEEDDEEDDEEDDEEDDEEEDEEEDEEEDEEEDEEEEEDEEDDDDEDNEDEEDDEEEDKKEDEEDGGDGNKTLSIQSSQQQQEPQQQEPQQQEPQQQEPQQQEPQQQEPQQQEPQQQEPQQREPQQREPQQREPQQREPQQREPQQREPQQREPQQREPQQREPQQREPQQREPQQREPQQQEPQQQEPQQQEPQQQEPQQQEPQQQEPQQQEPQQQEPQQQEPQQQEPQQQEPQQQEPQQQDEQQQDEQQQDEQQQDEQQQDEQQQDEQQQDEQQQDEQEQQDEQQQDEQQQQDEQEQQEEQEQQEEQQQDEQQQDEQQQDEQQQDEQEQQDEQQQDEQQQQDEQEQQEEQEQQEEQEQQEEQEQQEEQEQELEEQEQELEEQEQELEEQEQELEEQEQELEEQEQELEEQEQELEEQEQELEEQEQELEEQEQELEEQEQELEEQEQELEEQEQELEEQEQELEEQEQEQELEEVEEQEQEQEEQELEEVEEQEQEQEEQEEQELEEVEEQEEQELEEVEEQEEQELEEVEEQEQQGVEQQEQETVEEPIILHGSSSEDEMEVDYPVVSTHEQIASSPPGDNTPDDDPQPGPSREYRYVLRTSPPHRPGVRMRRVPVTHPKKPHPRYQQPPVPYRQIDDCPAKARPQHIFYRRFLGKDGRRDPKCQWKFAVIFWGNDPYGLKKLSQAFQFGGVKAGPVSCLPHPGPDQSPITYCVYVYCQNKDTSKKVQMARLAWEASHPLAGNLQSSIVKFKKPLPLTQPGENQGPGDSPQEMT
Active calls of the source: *; ? = inconclusive; · = not tested or not shown; & = joins results of further samples. Not a hit list. Share with any hit: about 4.3%.

Below each SMILES: T cruzi inh	RanGTP-Impb inh	A1 inh	Beta cell apopt	Vif TR-FRET	MLL AF4-AF9 inh	Calb FLC	LANA-H2A inh
O=C(CCC(=O)c1ccccc1)Nc1ccccc1
    34	0.2	1.2	-5	·	-0.8	4	-1.3
CCOC1CCCCC1NS(=O)(=O)c1ccc(Cl)cc1 (stereo not given)
    -3	6.5	0.2	-4	10%	7.3	-1	2.3
O=C(O)c1ccccc1N(Cc1ccccc1)C(=O)CO/N=C/c1ccccc1
    9	-6.3	-0.8	-9	3%	-1.7	0	-2.6
O=C(O)c1ccc(CSc2nnc(SCc3ccccc3)s2)cc1
    -9	-2.8	0.7	-3	-9%	·	-13	-2.7
O=C(Nc1nnc(C2=COCCO2)o1)c1ccc([N+](=O)[O-])cc1
    -14	·	-2.5	-6	5%	2.5	·	-1.1
Cc1cccc(NC(=O)Cn2c(=O)oc3cc(S(=O)(=O)N4CCCC4)ccc32)n1
    -1	0.0	-0.6	1	·	2.2	-7	-6.9
O=C(CNC(=O)c1ccc(Br)cc1)NCC(=O)OCc1ccc(Cl)cc1
    -22	?	1.0	0	5%	-0.5	-23	-0.7
COc1cccc(-n2c(SCC(=O)NCCC3=CCCCC3)nc3n[nH]c(C)c3c2=N)c1
    14	-2.8	0.1	11	11%	·	31	5.0
CCCCOc1ccc(CSc2nncn2N)cc1
    -6	2.3	0.2	-7	1%	·	-6	3.4
Cc1ccc(N(C)C(=O)c2cnn(-c3ccccc3)c2C)c(C)c1
    16	4.1	2.1	3	·	2.6	-5	-1.2

Random excerpt: 2 records from the list.
Below each SMILES: T cruzi inh	RanGTP-Impb inh	A1 inh	Beta cell apopt	Vif TR-FRET	MLL AF4-AF9 inh	Calb FLC	LANA-H2A inh
O=C(CNC(=O)c1ccc(Br)cc1)NCC(=O)OCc1ccc(Cl)cc1
    -22	?	1.0	0	5%	-0.5	-23	-0.7
O=C(O)c1ccc(CSc2nnc(SCc3ccccc3)s2)cc1
    -9	-2.8	0.7	-3	-9%	·	-13	-2.7

Following part.
Below each SMILES: T cruzi inh	RanGTP-Impb inh	A1 inh	Beta cell apopt	Vif TR-FRET	MLL AF4-AF9 inh	Calb FLC	LANA-H2A inh
CCCOC(=O)CCCCCCCCC(O)CN1CCCCC1 (stereo not given)
    8	1.9	1.0	-3	7%	2.1	-10	3.0
CC(C)(C)c1ccc(OC(=O)CN2C(=O)C3C4CCC(C4)C3C2=O)cc1 (stereo not given)
    -17	3.9	0.4	-3	-8%	-0.7	-8	-1.4
Cc1[nH]c2ccccc2c1CCC(N)=O
    -22	6.2	0.8	2	12%	·	-3	-4.8
COCCNC(=O)c1c(C)cc(C)cc1C
    -21	4.0	0.5	-7	11%	0.6	36	0.6
Cc1ccc(N2CC(C(=O)N/N=C/c3sccc3C)CC2=O)cc1 (stereo not given)
    5	4.0	-0.1	-6	-3%	·	10	-10
COc1ccccc1N1CCN(Cc2ccco2)CC1
    -8	2.6	1.5	-1	3%	·	-14	-15
CCOc1nnc(C)c2c(C)n(-c3ccc(Cl)cc3)nc12
    5	?	1.1	0	4%	·	1	2.3
S=c1[nH]nc(-c2ccncc2)n1CC1CCCO1 (stereo not given)
    -11	-2.1	-0.8	-7	18%	·	32	-0.7
CCNC(=O)N1CCNC(=O)C1CC(=O)Nc1ccc(C(=O)OCC)cc1 (stereo not given)
    1	2.1	-0.5	-1	-4%	·	-5	-0.4
Cc1nn(Cc2c(Cl)cccc2Cl)c(C)c1C(=O)NCc1ccc(C)n1C
    7	2.3	0.1	6	29%	·	-8	-3.6

Quoted from the listing:
Under LANA-H2A inh, COc1ccccc1N1CCN(Cc2ccco2)CC1 has the entry -15
Under Beta cell apopt, S=c1[nH]nc(-c2ccncc2)n1CC1CCCO1 (stereo not given) has the entry -7
Under LANA-H2A inh, Cc1[nH]c2ccccc2c1CCC(N)=O has the entry -4.8

More structures:
Below each SMILES: T cruzi inh	RanGTP-Impb inh	A1 inh	Beta cell apopt	Vif TR-FRET	MLL AF4-AF9 inh	Calb FLC	LANA-H2A inh
Cn1cc(Br)c(C(=O)N/N=C/c2cc3ccccc3nc2Cl)n1
    ·	·	-5.3	-2	·	-1.2	6	4.0
O=C(N/N=C/c1ccccn1)c1cc(-c2ccccc2)nc2ccccc12
    2	-6.3	-0.5	23	7%	2.1	0	0.7
Cc1ccnc(NC(=O)c2ccc(Br)s2)c1
    6	1.1	-6.4	-1	-9%	1.5	-16	-1.2
O=C1CC(c2ccc(F)cc2)CC(O)=C1C=NCCN1CCN(C(=O)Nc2ccccc2)CC1 (stereo not given)
    -3	-1.0	?	-3	5%	·	-8	4.4
O=C(Nc1sc2c(c1C(=O)O)CCC2)c1ccco1
    -8	-5.8	-0.1	-1	-1%	·	-1	2.7
Nn1c(SCC(=O)NCCc2ccc(F)cc2)nnc1C1CCCCC1
    ·	·	0.6	-5	72%	0.3	·	-3.7
COc1cc(C(C)=O)ccc1Oc1cc(NN2CCCCC2)c([N+](=O)[O-])cc1[N+](=O)[O-]
    -21	0.7	0.1	2	·	6.8	-1	-1.6
CC(C)C(=O)n1nc(-c2cccnc2)nc1NCc1ccc(F)cc1
    -3	-3.2	3.4	-9	2%	0.3	3	0.8
COc1cccc(-c2nnc3sc(-c4cccs4)nn23)c1
    ·	·	-1.5	17	-2%	·	·	0.1
COc1cc(NC(=O)CSCC(=O)Nc2cc(OC)cc(OC)c2)cc(OC)c1
    3	8.3	0.0	1	·	·	4	4.9

The listing continues:
Below each SMILES: T cruzi inh	RanGTP-Impb inh	A1 inh	Beta cell apopt	Vif TR-FRET	MLL AF4-AF9 inh	Calb FLC	LANA-H2A inh
NS(=O)(=O)c1ccc(CNC(=O)Cc2ccc(S(=O)(=O)N3CCOCC3)s2)cc1
    -4	1.5	0.5	-1	2%	1.0	-3	·
CCOC(=O)/C=C/S(=O)(=O)c1ccc(NC(C)=O)cc1
    12	0.9	2.7	23	5%	·	-5	0.9
CC1CCN(C(=O)c2ccc(Br)c(S(=O)(=O)N3CCOCC3)c2)CC1
    -2	2.9	0.3	-1	-4%	-0.4	1	1.5
CCOC(=O)C1(Cc2ccccc2C(F)(F)F)CCN(C(C)COC)CC1 (stereo not given)
    23	-2.6	0.4	15	1%	-9.2	-14	-0.3
Cc1ccc(Cl)cc1N1CCN(C(=O)CCCn2c(=O)c3cccn3c3cccnc32)CC1
    3	1.4	-2.0	-1	5%	1.9	14	-5.4
Cc1ccc(NC(=O)NN(C)c2c(Cl)c(Cl)nn2C)cc1
    -16	-1.1	0.6	5	·	-1.7	-8	-0.1
COc1ccc(N2CCOCC2)c(NC(=O)c2cccc3ccccc23)c1
    1	-3.2	0.5	-4	·	2.5	-4	1.1
Cc1cccc(NC(=O)c2ccc(-n3ccnc3)nc2)c1
    17	-2.7	·	1	2%	·	-3	2.2
Cc1cc(Br)ccc1NC(=O)CCSc1ccccc1
    -8	1.4	0.1	-9	-1%	·	10	-3.9
Cc1cc(=O)oc(C)c1C(=O)OCC(=O)c1ccc(Cl)cc1
    -1	-2.9	-0.4	-1	4%	·	-17	7.1

Following part.
Below each SMILES: T cruzi inh	RanGTP-Impb inh	A1 inh	Beta cell apopt	Vif TR-FRET	MLL AF4-AF9 inh	Calb FLC	LANA-H2A inh
Cc1cccc(N2CCN(C(=O)CCc3nc4ccccc4[nH]3)CC2C)c1 (stereo not given)
    -11	3.0	0.2	2	3%	2.4	-3	-3.0
CS(=O)(=O)N(CC(=O)N1CCOCC1)c1ccccc1
    -4	2.4	-0.2	-3	-1%	-4.0	12	0.1
O=C(CCS(=O)(=O)c1ccc(Cl)cc1)Nc1nnc(-c2ccco2)o1
    -28	0.5	-1.1	-15	11%	-4.5	4	6.5
CCOc1cc(/C=C2\NC(=S)N(C)C2=O)ccc1OCc1ccc(C(=O)O)cc1
    -17	0.1	0.0	4	·	-1.6	-4	1.9
O=C(c1ccccc1[N+](=O)[O-])N1CCc2ccccc2C1
    -16	-2.4	1.1	-9	-9%	·	15	4.7
O=c1[nH]c2ccc(NC(=S)NCc3ccccc3)cc2[nH]1
    3	-3.8	0.2	-10	-1%	-1.7	5	2.7
S=c1[nH]c2cc3ccccc3cc2[nH]1
    4	-0.9	-0.7	-6	26%	-4.6	?	-1.7
COc1ccc(NC(=O)CCN2C(=O)c3cccc([N+](=O)[O-])c3C2=O)cc1
    -7	?	1.2	-4	-4%	-1.8	1	2.3
Cc1cc(=O)oc(C)c1C(=O)Nc1ccc(F)cc1
    -15	2.1	-0.1	-5	1%	4.2	3	-1.0
CN1C(=O)CS(=O)c2ccc(C(=O)NCCC3=CCCCC3)cc21 (stereo not given)
    -10	?	1.1	7	1%	-2.4	-1	-2.8

New compounds follow.
Below each SMILES: T cruzi inh	RanGTP-Impb inh	A1 inh	Beta cell apopt	Vif TR-FRET	MLL AF4-AF9 inh	Calb FLC	LANA-H2A inh
CCn1cnc2c1c(=O)n(CC(=O)Nc1cc(C)on1)c(=O)n2Cc1ccccc1
    4	-0.4	0.7	-5	2%	·	1	2.2
Cc1ccc2c(c1)nc(NCCO)n2C
    -2	2.4	0.6	0	3%	·	-15	2.0
CN(CC(=O)Nc1ccccc1C(F)(F)F)C(=O)c1cccc(-n2cccc2)c1
    2	1.9	2.0	-1	7%	7.0	4	-5.0
Cc1ccc(S(=O)(=O)N(C)C[C@H]2Oc3ccc(NC(=O)Nc4c(C)noc4C)cc3CC(=O)N([C@@H](C)CO)C[C@@H]2C)cc1
    ·	·	-0.1	1	·	3.8	·	1.3
CC(C)NC(=O)Nc1cccc2c1O[C@H](CN(C)C(=O)NC1CCCCC1)[C@H](C)CN([C@H](C)CO)C2=O
    ·	·	0.5	-4	·	-3.8&6.8	·	1.8
COc1cccc(NC(=O)CN(C)C(=O)c2ccc(COc3ccccc3)o2)c1
    ·	·	-1.5	-5	10%	0.3	·	·
Cc1cc(C)c2c3c(cn2n1)c(=O)n(C)c(=O)n3C
    -13	-4.1	0.7	-10	-4%	·	-2	0.9
CC(C)(C)OC(=O)N[C@H](C(=O)OC(C)(C)C)c1ccc2c(c1)OCO2
    ·	·	1.8	-1	·	2.6	·	0.6
COc1ccc(N2C(=O)C3CC(C)=C(C)CC3C2=O)c(OC)c1 (stereo not given)
    -15	?	0.4	2	15%	·	13	0.0
CC(=O)Nc1ccc(S(=O)(=O)Nc2ccc(-c3ccc4nnc(C)n4n3)cc2)cc1
    3	0.1	0.1	-1	-10%	3.1	-4	2.9

Bioassay records from PubChem.
